miR-21 reporter: qHTS Assay for Modulators of miRNAs and/orActivators of miR-21 | HeLa miR-21 FLuc reporter, luciferase, 48 h | Potency, µM (highest dose often 38.3 µM), for inactives: at the highest dose reporter change, positive = more light | AID 2288, 2010 | 340,000 tested, under 10 active; active = well fitted rising curve with a large enough effect; inconclusive = small, poorly fitted or top-dose-only effect; inactive = no such curve, though single readings can be large or run the other way;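 also: % of control where 0% means no effect; miR-21 action dims this reporter so a rising signal means less miR-21 action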
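HeLa cells stably expressing CMV-driven firefly luciferase with a downstream miR-21 binding sequence, endogenously expressing miR-21, were treated with titrations (up to about 40uM final) for 48 hours at 37 degree Celsius. Luciferase luminescence was read after lysis.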
Rango release inh: qHTS Assay for Inhibitors of RanGTP induced Rango (Ran-regulated importin-beta cargo) - Importin beta complex dissociation | Potency, µM (highest dose often 46.1 µM), for the others: at the highest dose activity change, negative = inhibition | 340,000 compounds, 0.071% hits | Biochemical FRET Rango-importin beta, RanGTP-induced dissociation | AID 540253, 2011 | Snurportin-1 (Homo sapiens) + GTP-binding nuclear protein Ran (Homo sapiens) + Importin …; active means falling FRET ratio curve, often poorly fitted, with flat reads before Ran was added; inconclusive means other falling curves, or compound fluorescence or quenching; inactive means flat or rising ratio curve;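 also: potency is read from the fitted curve at half-maximal effect; % of control where 0% means no effect; nearly all actives have a fitted effect of over 45% in size; -100% = wells without RanGTP and RCC1; the record marks most hits as doubtful in a second field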
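Quantitative HTS using a FRET biosensor: 0.1 uM Rango, 0.25 uM importin beta, 0.6 uM Ran, 2 mM GTP, 0.2 uM RCC1 final, PBS with DTT, Tween-20 and BSA. Post-read taken 45 min after Ran addition.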
GLA inh pH 4.5: qHTS Assay for Inhibitors of Human alpha-Galactosidase at pH 4.5; purified enzyme, 4-MU-alpha-Gal fluorescence, pH 4.5; Alpha-galactosidase A (Homo sapiens), P06280; 230,000 tested, under 10 active; AID 1467, 2008; activity change, negative = inhibition, % at 105 µM; inconclusive = small, poorly fitted or top-dose-only inhibition, or a rising curve; inactive = flat fitted curve, though single readings scatter; no compound was filed as active;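 also: 0% = full activity with enzyme and -100% = basal without enzyme; dose as in the result columns while the protocol names 77 µM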
Rango complex inh: qHTS Assay for Inhibitors of Rango (Ran-regulated importin-beta cargo) - Importin beta complex formation. Importin subunit beta-1 (Homo sapiens), Q14974. Rango CFP/YFP FRET sensor + importin beta, 45 min. Potency, µM (top dose mostly 92.2 µM), for inactives: at the highest dose inhibition of complex formation. 340,000 compounds, 0.031% hits. AID 540263, 2011; active = rising FRET ratio curve, often small or poorly fitted; inconclusive = mostly compound fluorescence or quenching in the first reads; inactive = flat curves in all reads;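 also: potency is read from the fitted curve at half-maximal effect; 0% = DMSO wells and 100% = buffer wells lacking importin beta; nearly all actives have a fitted effect of over 15% in size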
Target sequence (Q14974 whole entry, looked up): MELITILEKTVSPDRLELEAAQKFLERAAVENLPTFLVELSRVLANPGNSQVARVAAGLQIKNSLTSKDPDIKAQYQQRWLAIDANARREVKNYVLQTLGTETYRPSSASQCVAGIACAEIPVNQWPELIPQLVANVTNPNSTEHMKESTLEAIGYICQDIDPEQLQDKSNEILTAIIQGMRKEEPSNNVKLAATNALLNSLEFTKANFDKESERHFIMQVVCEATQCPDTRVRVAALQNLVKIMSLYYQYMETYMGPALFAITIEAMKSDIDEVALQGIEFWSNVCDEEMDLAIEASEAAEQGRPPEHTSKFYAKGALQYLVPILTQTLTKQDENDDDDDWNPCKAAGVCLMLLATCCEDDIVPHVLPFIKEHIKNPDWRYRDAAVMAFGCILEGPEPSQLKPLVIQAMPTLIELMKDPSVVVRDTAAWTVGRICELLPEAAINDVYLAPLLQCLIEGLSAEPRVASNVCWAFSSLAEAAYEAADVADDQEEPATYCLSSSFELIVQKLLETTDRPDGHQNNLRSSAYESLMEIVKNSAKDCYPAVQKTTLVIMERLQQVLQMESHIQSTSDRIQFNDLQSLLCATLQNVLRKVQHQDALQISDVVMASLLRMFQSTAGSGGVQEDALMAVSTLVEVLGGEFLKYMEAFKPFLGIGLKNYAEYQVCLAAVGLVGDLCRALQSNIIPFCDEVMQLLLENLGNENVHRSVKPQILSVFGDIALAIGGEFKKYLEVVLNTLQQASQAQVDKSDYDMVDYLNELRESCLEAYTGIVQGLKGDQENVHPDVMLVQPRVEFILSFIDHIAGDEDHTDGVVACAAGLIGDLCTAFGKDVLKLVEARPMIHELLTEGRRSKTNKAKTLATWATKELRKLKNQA
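Inhibition scored from the CFP 486 nm/YFP 530 nm FRET ratio 45 min after adding 0.125 microM importin beta to 50 nM Rango biosensor preincubated 5 min with compound (room temperature, PBS with DTT, Tween-20, BSA). No-importin wells as positive control.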
Active calls of the source: *; ? = inconclusive; . = no result given.

The line under a structure holds: miR-21 reporter | Rango release inh | GLA inh pH 4.5 | Rango complex inh
> CCOc1ccc(C(C(=O)NC2CCCC2)N(C(=O)c2snc(C(N)=O)c2N)C2CCCC2)cc1 (centres undefined)
    4% | 4% | . | ?
> Cc1ccccc1NC(=O)c1nc2nccc(C)n2n1
    -38% | . | 4 | .
> COc1ccc(C(=O)n2nc(-c3ccc(OC)cc3)nc2N)cc1
    -11% | -1% | 2 | -3.3%
> C=C(C)CN(CC)C(=O)CSc1ccc(S(=O)(=O)N2CCN(Cc3ccccc3)CC2)cn1
    . | -1% | . | 0.6%
> CC(NC(=O)c1ccco1)C(=O)OCC(=O)c1ccc(Cl)s1 (centres undefined)
    0% | -3% | -5 | -0.6%
> Cc1nn(-c2cc(C(F)(F)F)ccc2Cl)c2nc(C(F)(F)F)[nH]c(=O)c12
    3% | 20% | 0 | -0.1%
> Cc1ccccc1CSCc1nc(N)nc(Nc2ccccc2C)n1
    -45% | 0% | -25 | -0.8%
> CC(C)(C)c1ccc(C(=O)NCc2cccnc2)cc1
    -37% | -6% | 1 | -2.2%
> CCOc1cc(/C=C2/C(=N)N3C(=NC2=O)SN=C3S(C)(=O)=O)ccc1OS(=O)(=O)c1ccccc1
    -5% | ? | . | ?
> COc1cccc(/C=C/C(=O)c2c(O)cc(C)oc2=O)c1O
    -49% | ? | -3 | ?
> CCCc1nnc(NC(=O)CCC(=O)N2CCN(Cc3ccccc3)CC2)s1
    -1% | -6% | . | -1.6%
> COc1ccc(OCC(=O)Nc2ccc(N3CCN(C(=O)c4ccccc4)CC3)c(Cl)c2)cc1
    23% | ? | . | -2.3%
> O=C(CCCCCn1c(=S)[nH]c2ccc(N3CCOCC3)cc2c1=O)NCc1ccccc1
    -8% | ? | 1 | ?
> Cc1sc2nc(SCc3nc4ccccc4[nH]3)n(Cc3ccco3)c(=O)c2c1C
    -1% | -17% | 0 | 1.4%
> CCOC(CN=c1nc(N(C)C)ss1)OCC
    . | -4% | . | -2.7%

The line under a structure holds: miR-21 reporter | Rango release inh | GLA inh pH 4.5 | Rango complex inh
> Cc1cccc(C(=O)OCC(=O)NC2CCCCCCC2)c1
    . | -12% | . | 1.1%
> Cc1ccc(NC(=O)c2ccc(-n3cccn3)nc2)cc1
    1% | 13% | 7 | -0.7%
> Cc1cccc(C2=NN(c3ccccc3)[C@H](CO)[C@H]2c2ccccc2)c1
    . | ? | ? | ?
> CCOc1ccccc1NC(=O)CSc1nnc(CNC(=O)c2cc(OC)c(OC)c(OC)c2)o1
    0% | 34% | . | 4.1%
> Nc1c(S(=O)(=O)c2cccs2)c2nc3ccccc3nc2n1CCc1ccccc1
    19% | . | ? | .
> O=C(Nc1ccccc1)C1=C[C@@H](c2csc3ccccc23)C[C@@H](OCc2ccc(CO)cc2)O1
    19% | 1% | -6 | -0.5%
> Cc1ccc(-c2nc3ccccn3c2C=O)cc1
    -47% | -7% | -11 | -2.4%
> CSCCC(NC(=O)c1ccccc1)C(=O)N1CCN(C(c2ccccc2)c2ccccc2)CC1 (centres undefined)
    -5% | -4% | . | -0.7%
> CC(=O)N1C(C(=O)O)CSC1c1cccc(C)c1 (centres undefined)
    -2% | -8% | -9 | -1.7%
> CCCCN1C(=O)C(NC(C)=O)c2cc(Br)ccc21 (centres undefined)
    8% | ? | 1 | 0.7%
> CCc1cc(Cn2nc(-c3ccccc3)cc2C(=O)NCc2cccc(Br)c2)on1
    . | ? | . | -1.3%
> CCOc1ccc(CCNC(=O)C2CCC(=O)N2CCc2ccccc2)cc1OCC (centres undefined)
    0% | -1% | -13 | 5.2%
> O=C(NCCC(=O)N1CCCC(C(F)(F)F)C1)c1ccccc1Cl (centres undefined)
    16% | -17% | . | 2.9%
> COCCOC(=O)C1=C(C)NC(=O)NC1c1ccc(OC(=O)c2ccco2)c(OC)c1 (centres undefined)
    -4% | -3% | 0 | 3.5%
> Cc1nn(C)cc1/C=C/C(=O)c1cccs1
    -67% | 4% | 3 | ?

The line under a structure holds: miR-21 reporter | Rango release inh | GLA inh pH 4.5 | Rango complex inh
> O=C(COC(=O)Cc1ccccc1F)Nc1ccc2c(c1)OCCO2
    -10% | -1% | 3 | -3.4%
> Cc1ccc(-c2nc(CS(=O)(=O)CC(=O)NCCCN3CCN(C)CC3)c(C)o2)cc1
    -6% | 3% | -2 | 0.4%
> Cc1ccc(CNC(=O)CNS(=O)(=O)c2ccc3nc(C)sc3c2)cc1
    -3% | -12% | 6 | -1.1%
> CCOC(=O)C(=CNc1cc(C)nn1-c1ccccc1)C(=O)OCC
    16% | 16% | -1 | -0.6%
> O=C(Nc1ccc(S(=O)(=O)N2CCCC2)cc1)c1cc(=O)c2ccccc2o1
    3% | -10% | -1 | 6.6%
> CCOCCCNC(=S)Nc1ccc2nc(N3CCN(CC)CC3)cc(C)c2c1
    0% | 8% | . | -4.5%
> CCn1c(COc2ccc(=O)n(-c3ccccc3)n2)nnc1SC
    1% | -16% | -2 | -5.2%
> O=C(c1ccc(CS(=O)Cc2ccc(Cl)cc2)o1)N1CCN(c2ccccn2)CC1 (centres undefined)
    20% | -14% | . | -1.3%
> Cc1ccc(/C=C/C(=O)N2CC(=O)Nc3ccccc32)o1
    1% | 9% | -1 | 3.5%
> CN(C)S(=O)(=O)c1cc(C(=O)Nc2ccccc2C(=O)NC2CC2)ccc1Cl
    . | -26% | . | -1.7%
> Cc1ccsc1C(=O)Nc1ccc(F)c([N+](=O)[O-])c1
    -23% | -9% | -4 | 0.0%
> Cn1nc(C(F)(F)F)cc1-c1ccc(/C=C(\C#N)C(=O)c2ccccc2)s1
    -4% | 27% | -2 | 0.1%
> O=C(Nc1ccc(Oc2cccnc2)cc1)C1CCN(Cc2ccc(F)cc2)CC1
    18% | -1% | . | 6.4%
> Cc1nnc(SCC(=O)Nc2ccc(C(N)=O)cc2)n1-c1ccccc1
    0% | 15% | . | -4.2%
> Cc1cc(Cl)ccc1OCCCC(=O)Nc1cccc(-n2cnnn2)c1
    20% | -4% | . | 3.3%

6 compounds picked at random from the list so far, as already listed:
The line under a structure holds: miR-21 reporter | Rango release inh | GLA inh pH 4.5 | Rango complex inh
> CCOCCCNC(=S)Nc1ccc2nc(N3CCN(CC)CC3)cc(C)c2c1
    0% | 8% | . | -4.5%
> CCn1c(COc2ccc(=O)n(-c3ccccc3)n2)nnc1SC
    1% | -16% | -2 | -5.2%
> Cc1ccsc1C(=O)Nc1ccc(F)c([N+](=O)[O-])c1
    -23% | -9% | -4 | 0.0%
> CCOC(=O)C(=CNc1cc(C)nn1-c1ccccc1)C(=O)OCC
    16% | 16% | -1 | -0.6%
> CN(C)S(=O)(=O)c1cc(C(=O)Nc2ccccc2C(=O)NC2CC2)ccc1Cl
    . | -26% | . | -1.7%
> Cc1ccc(/C=C/C(=O)N2CC(=O)Nc3ccccc32)o1
    1% | 9% | -1 | 3.5%

Going on with the list:
Structure | miR-21 reporter | Rango release inh | GLA inh pH 4.5 | Rango complex inh
CC1=C(C(=O)OCc2ccc(C)cc2)C(c2ccc(O)c([N+](=O)[O-])c2)NC(=O)N1 (centres undefined) | 0% | 5% | -4 | 7.2%
CC(C)C(Nc1ncnc2c1oc1ccccc12)C(=O)O (centres undefined) | 3% | 0% | 0 | -2.4%
O=C(NCC(=O)N(c1ccc2c(c1)OCO2)C(C(=O)NC1CCCC1)c1ccncc1)c1ccco1 (centres undefined) | -1% | -21% | -3 | 2.1%
CC(=O)Nc1cccc(NC(=O)C2CC(=O)N(CCc3ccc(F)cc3)C2)c1 (centres undefined) | 0% | 2% | . | -0.4%
COc1ccc(OC)c(/C=N/NC(=O)CC(=O)NC2CCCCC2)c1 | -1% | 11% | . | 4.9%
CC(C)(C)c1ccc(C(=O)N/C(=C\c2ccco2)C(=O)Nc2ccccc2C(=O)O)cc1 | -33% | -3% | . | ?
O=C(NCCc1ccccc1F)C1CCCN(c2nc3ccccc3s2)C1 (centres undefined) | 0% | -7% | . | -3.5%
CCOC(=O)C1C(C)=CC(=O)CC1c1ccco1 (centres undefined) | 0% | -7% | -1 | -0.5%
Cc1c(-n2c(O)c(C3=c4ccccc4=NC3=O)sc2=S)c(=O)n(-c2ccccc2)n1C | 0% | 0% | -3 | -1.3%
Nc1nc(Nc2ccccc2)sc1C(=O)c1ccccc1 | -20% | -13% | -10 | 3.7%
COC(=O)c1ccc(CN2CCCC(C(=O)Nc3cccc(-n4cccn4)c3)C2)cc1 (centres undefined) | 18% | -3% | . | -4.1%
CC1CCCN(C(=S)Nc2ccc(F)cc2)C1 (centres undefined) | -4% | -8% | 5 | 7.6%
CCOc1ccccc1NC(=O)CCn1cccc1 | -3% | -4% | 6 | 2.3%
Cc1cc(C)c2c(c1)/C(=N/NS(=O)(=O)c1ccc(Br)cc1)CCC2 | -3% | -9% | -10 | -4.8%
CC(C)NC(=O)NC(=O)CSc1ccc(S(=O)(=O)N2CCCC2)cn1 | . | -10% | . | 4.6%
O=C(COc1cccc(Cl)c1Cl)Nc1ccc2c(c1)CCC2 | 1% | 21% | 1 | -0.2%
CCOC(=O)NNc1ccc(C(F)(F)F)cn1 | -6% | 11% | ? | -2.0%
CC1(C)Oc2ccc(C(=O)Nc3ccccc3F)cc2N(CC(=O)N2CCOCC2)C1=O | -30% | -5% | . | -0.1%
COc1ccc(C2C(C#N)=C(N)Oc3c2ccc2cccnc32)cc1OC (centres undefined) | 23% | 7% | -27 | 2.9%
COc1cccc2oc3cc(C#Cc4ccccn4)ccc3c(=O)c12 | -78% | -10% | . | -3.7%
Cc1ccc(-c2nnn(CC(=O)N(Cc3cccs3)C(C(=O)NC3CCCC3)c3ccco3)n2)o1 (centres undefined) | -12% | 15% | -8 | 0.0%
Cc1ccc(S(=O)(=O)Oc2ccc(C3C4=C(CCCC4=O)OC4=C3C(=O)CCC4)cc2)cc1 | 2% | 7% | -2 | 0.6%
CN(C(=O)c1ccc(NC(=O)Cc2cccc(NC(=O)C3CCN(C(=O)CCc4ccccc4)CC3)c2)cc1)C1CCCC1 | . | -12% | . | -1.1%
CCOC(=O)c1cnc(SCc2cccc3ccccc23)nc1N | -9% | -3% | -6 | 2.3%
COc1ccc(/C=C/C(=O)NCc2cnn(C)c2C)cc1COc1ccc(Br)cc1 | -9% | -4% | 2 | 5.9%

Structure | miR-21 reporter | Rango release inh | GLA inh pH 4.5 | Rango complex inh
CCc1ccc(CCC(=O)Nc2ccc(S(N)(=O)=O)cc2)o1 | -8% | -7% | 4 | -3.6%
CC1CN(c2nc(Nc3ccccc3)nc(N)c2[N+](=O)[O-])CC(C)O1 (centres undefined) | 2% | -1% | -14 | 2.9%
Cc1ccnc(NS(=O)(=O)c2ccc(NC(=O)c3ccc(S(=O)(=O)N4CCOCC4)cc3)cc2)n1 | 1% | 5% | -2 | -0.7%
CC(C)C(C(=O)NCC1CCCO1)N(Cc1cccs1)C(=O)CNS(=O)(=O)c1ccccc1 (centres undefined) | -3% | 0% | 5 | 0.3%
Cc1sc2ncnc(N3CCN(S(=O)(=O)c4ccc(C(C)(C)C)cc4)CC3)c2c1C | . | 8% | . | -4.6%
Cc1cccc(NC(=O)NCC(c2cccnc2)N2CCOCC2)c1 (centres undefined) | 0% | 1% | 4 | -1.3%
O=C(Nn1c(=S)[nH]c2ccccc2c1=O)c1ccncc1 | -9% | 2% | 4 | -4.0%
O=C(Nc1ccncc1)Nc1ccc(F)cc1F | -15% | 7% | 6 | -1.2%
CCC(C)NC(=O)c1n[nH]c(=O)c2ccccc12 (centres undefined) | -22% | 2% | -5 | 0.9%
Clc1ccc(CN2CCN(/N=C/c3cccnc3)CC2)cc1 | -1% | -16% | -4 | -2.5%
CCOc1ccc(S(=O)(=O)NCCC(=O)NC2CCCCC2)cc1 | . | 0% | . | 0.1%

An excerpt; rates above refer to the full screens.
